From PubChem BioAssay
Vaccinia inh = blocks a specific stage of Vaccinia orthopoxvirus infection. Vaccinia-infected cells, mCherry/Venus stage reporter fluorescence; stronger effect = lower value; some inactives read as strong as hits. activity change (mCherry), % (test concentration not listed). 89,000 tested, 0.01% active. AID 1053133;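 active means mCherry past -33% and 40 or more points under the early reporter, replicates agreeing; inconclusive means past -33% without that gap or agreement; tested in A549 cells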;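 further: scaled between vehicle wells and reference inhibitor wells; 23 nL library stock went into each well; one replicate is shown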
Vaccinia inh Venus = also measured in Vaccinia inh; calls as there; activity change (Venus), %; measured here: Venus reporter, other viral stage;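 negative = less Venus signal; first of two replicates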
The depositor's hits bear a star; ? = inconclusive; nt = not tested or not shown; & = joins results of further samples. Some of the compounds tested; count on the stated rates, not on these rows.

The line under a structure holds: Vaccinia inh, Vaccinia inh Venus
1. C[C@H](CO)N1C[C@H](C)[C@@H](CN(C)C(=O)Cc2ccccn2)Oc2ncc(-c3ccc(F)cc3)cc2C1=O
 : 3, 2
2. CC(C)NC(=O)Nc1ccc2c(c1)CC(=O)N([C@@H](C)CO)C[C@H](C)[C@H](CN(C)C(=O)Nc1ccccc1)O2
 : 8, 5
3. Cc1ccccc1S(=O)(=O)N1CC(=O)N2[C@H](C1)[C@@H](c1ccc(C#Cc3ccccc3)cc1)[C@@H]2CO
 : -22, -17
4. COCC(=O)N1CC2(C1)[C@H](c1ccccc1)[C@@H](CO)N2C(=O)c1cccnc1
 : -4, 3
5. C[C@H](CO)N1C[C@H](C)[C@H](CN(C)S(=O)(=O)c2ccc(Cl)cc2)Oc2ccc(NC(=O)Cc3cn(C)c4ccccc34)cc2C1=O
 : -5, 4
6. O=C(O)C[C@@H]1C[C@H]2c3cc(NC(=O)Nc4ccccc4)ccc3O[C@H]2[C@H](CO)O1
 : 5, 2
7. C[C@H](CO)N1C[C@H](C)[C@H](CN(C)C(=O)c2ccccc2)OCCCC[C@H](C)Oc2ccc(NC(=O)c3ccccc3)cc2C1=O
 : -4, -9
8. O=C(Nc1ccc(Cl)cc1)N[C@H]1CC[C@H](CCNC(=O)c2ccccc2F)O[C@@H]1CO
 : -5, 8
9. C[C@@H]1CN([C@H](C)CO)C(=O)Cc2cc(NC(=O)Cc3cn(C)c4ccccc34)ccc2O[C@@H]1CN(C)CC1CC1
 : 1, -7
10. CCCN1C[C@@H](C)[C@@H](OC)CN(C)C(=O)c2cc(NC(=O)NC3CCCC3)ccc2OC[C@@H]1C
 : 47, 15
11. Cc1noc(C)c1NC(=O)Nc1cccc2c1O[C@@H](CN(C)CC1CCCCC1)[C@H](C)CN([C@H](C)CO)C2=O
 : 4, 1
12. COc1ccc(CN2C[C@@H](C)[C@@H](OC)CN(C)C(=O)c3cc(NC(C)=O)ccc3OC[C@H]2C)cc1
 : 9, 10
13. C[C@@H]1CN([C@@H](C)CO)C(=O)c2cccc(NS(=O)(=O)c3cn(C)cn3)c2O[C@@H]1CN(C)CC1CCCCC1
 : -2, -3
14. C[C@@H]1CN([C@@H](C)CO)C(=O)c2cccc(NC(=O)c3cnccn3)c2O[C@H]1CN(C)S(=O)(=O)c1ccc(F)cc1
 : 17, 20
15. Cc1ccc(S(=O)(=O)N2C[C@H](O)COC[C@@H]3O[C@H](CC(=O)NCC4CCCCC4)CC[C@H]32)cc1
 : 6, 5
16. C[C@H]1CN([C@@H](C)CO)C(=O)c2cccc(NC(=O)Nc3cccc4ccccc34)c2O[C@H]1CN(C)S(=O)(=O)c1ccccc1
 : 2, 2
17. CN(C)Cc1cn(CC[C@@H]2CC[C@H](NS(=O)(=O)c3ccc(-c4ccccc4)cc3)[C@@H](CO)O2)nn1
 : -19, -13
18. O=C(C[C@H]1C=C[C@@H](NS(=O)(=O)c2ccccc2)[C@@H](CO)O1)NCc1ccncn1
 : -1, 9
19. O=C(CN1CCOCC1)NCC[C@@H]1CC[C@@H](NC(=O)Nc2ccc(Cl)cc2)[C@H](CO)O1
 : 7, 8
20. C/C=C/c1ccc2c(c1)O[C@H](CN(C)C(=O)c1cccnc1)[C@@H](C)CN([C@H](C)CO)S2(=O)=O
 : 13, 1

Random excerpt: 2 records from the list
The line under a structure holds: Vaccinia inh, Vaccinia inh Venus
20. C/C=C/c1ccc2c(c1)O[C@H](CN(C)C(=O)c1cccnc1)[C@@H](C)CN([C@H](C)CO)S2(=O)=O
 : 13, 1
10. CCCN1C[C@@H](C)[C@@H](OC)CN(C)C(=O)c2cc(NC(=O)NC3CCCC3)ccc2OC[C@@H]1C
 : 47, 15

Record cards (already shown). Values in the order: Vaccinia inh, Vaccinia inh Venus
Cc1noc(C)c1NC(=O)Nc1cccc2c1O[C@@H](CN(C)CC1CCCCC1)[C@H](C)CN([C@H](C)CO)C2=O is listed as 4, 1
C[C@@H]1CN([C@@H](C)CO)C(=O)c2cccc(NC(=O)c3cnccn3)c2O[C@H]1CN(C)S(=O)(=O)c1ccc(F)cc1 is listed as 17, 20
CN(C)Cc1cn(CC[C@@H]2CC[C@H](NS(=O)(=O)c3ccc(-c4ccccc4)cc3)[C@@H](CO)O2)nn1 is listed as -19, -13
COCC(=O)N1CC2(C1)[C@H](c1ccccc1)[C@@H](CO)N2C(=O)c1cccnc1 is listed as -4, 3
CCCN1C[C@@H](C)[C@@H](OC)CN(C)C(=O)c2cc(NC(=O)NC3CCCC3)ccc2OC[C@@H]1C is listed as 47, 15

More results.
The line under a structure holds: Vaccinia inh, Vaccinia inh Venus
21. O=C(C[C@H]1CC[C@@H](NC(=O)c2ccc(F)cc2)[C@@H](CO)O1)NCCc1ccncc1
 : 11, 8
22. COc1ccc(NC(=O)Nc2ccc3c(c2)C(=O)N([C@@H](C)CO)C[C@@H](C)[C@H](CN(C)Cc2ccc(C(=O)O)cc2)O3)cc1
 : 0, 7
23. C[C@@H]1CN([C@@H](C)CO)C(=O)c2cc(NC(=O)Nc3ccc(C(F)(F)F)cc3)ccc2O[C@H]1CN(C)S(=O)(=O)c1cn(C)cn1
 : 14, 2
24. CC(C)NC(=O)N(C)C[C@@H]1OCCCC[C@@H](C)Oc2ccc(NC(=O)CCC(F)(F)F)cc2C(=O)N([C@@H](C)CO)C[C@H]1C
 : 7, 8
25. CCNC(=O)[C@@H]1[C@@H](CO)[C@@H]2Cn3c(ccc(/C=C/c4ccccc4)c3=O)[C@H]1N2C(=O)c1ccncc1
 : 11, -1
26. COCC(=O)Nc1ccc2c(c1)C(=O)N(C)[C@@H]1CC[C@H](CC(=O)NCC3CC3)O[C@@H]1CO2
 : 16, 9
27. CC(C)NC(=O)N1[C@H](CO)[C@H]2c3ccccc3NC[C@H]21
 : 2, 14
28. O=C1C2C=C(I)[C@H](C[C@@H]2OCCCCCCO)[C@@]12CO2
 : 11, 10
29. O=C1O[C@H](c2ccccc2)[C@H](c2ccccc2)N2[C@H]1[C@@H](C(=O)NC[C@H](O)c1ccccc1)[C@]1(C(=O)Nc3ccc(C#CC4=CCCCC4)cc31)[C@H]2c1ccc(OCCO)cc1
 : -13, -4
30. COc1ccc(NC(=O)N(C)C[C@@H]2Oc3ccc(NC(=O)Nc4cccc5ccccc45)cc3C(=O)N([C@@H](C)CO)C[C@@H]2C)cc1
 : 9, 3
31. C[C@@H]1CCCCO[C@@H](CN(C)C(=O)CCCN(C)C)[C@H](C)CN([C@@H](C)CO)C(=O)c2cc(NC(=O)Nc3cccc4ccccc34)ccc2O1
 : 10, 4
32. Cc1cccc(-c2ccc([C@H]3[C@@H](CO)N4CCCCN(C(=O)c5cccnc5)C[C@@H]34)cc2)c1
 : -13, -8
33. Cc1ccc(S(=O)(=O)Nc2ccc3c(c2)CC(=O)N([C@@H](C)CO)C[C@H](C)[C@@H](CN(C)C(=O)Nc2c(C)noc2C)O3)cc1
 : 12, 3
34. C[C@@H]1CCCCO[C@@H](CN(C)S(=O)(=O)c2cn(C)cn2)[C@H](C)CN([C@H](C)CO)C(=O)c2cc(NS(=O)(=O)c3ccc(F)cc3)ccc2O1
 : 41, 25
35. Cc1ccccc1-c1cnc2c(c1)C(=O)N([C@H](C)CO)C[C@@H](C)[C@@H](CN(C)C(=O)CN(C)C)O2
 : 21, 12
36. C[C@@H]1CN([C@H](C)CO)S(=O)(=O)c2ccc(-c3cccc(F)c3)cc2O[C@@H]1CN(C)S(=O)(=O)c1ccc(F)cc1
 : -30, -22
37. C[C@@H]1CN([C@@H](C)CO)C(=O)c2cc(NC(=O)CCC(F)(F)F)ccc2O[C@@H]1CN(C)C
 : -5, -2
38. C[C@H](CO)N1C[C@H](C)[C@@H](CN(C)Cc2ccc(Cl)c(Cl)c2)Oc2ccc(NC(=O)c3ccncc3)cc2CC1=O
 : ?, nt
39. C[C@@H]1CCCCO[C@@H](CN(C)C(=O)Nc2ccccc2)[C@@H](C)CN([C@@H](C)CO)C(=O)c2cc(NC(=O)c3ccccc3)ccc2O1
 : -7, -4
40. Cc1cccc(S(=O)(=O)N2C[C@@H]3[C@H](c4ccccc42)[C@H](CO)N3C(=O)CC2CC2)c1
 : -19, -1

Values by screen from the entries so far.
Nos. 28–32 in Vaccinia inh: 11, -13, 9, 10, -13

Next section
The line under a structure holds: Vaccinia inh, Vaccinia inh Venus
41. CO[C@@H]1CN(C)C(=O)c2cc(NC(=O)C3CCC3)ccc2OC[C@H](C)N(Cc2cccnc2)C[C@@H]1C
 : 0, 0
42. CCCNC(=O)N(C)C[C@H]1Oc2ncc(C#Cc3ccccc3F)cc2C(=O)N([C@@H](C)CO)C[C@H]1C
 : 4, 8
43. C[C@H]1CN([C@@H](C)CO)C(=O)Cc2cc(NS(C)(=O)=O)ccc2O[C@@H]1CN(C)Cc1ccccc1
 : 16, 5
44. CO[C@H]1CN(C)C(=O)c2cc(NC(=O)c3cccc(F)c3)ccc2OC[C@H](C)N(C)C[C@H]1C
 : 5, 12
45. C[C@H](CO)N1C[C@H](C)[C@H](CN(C)C(=O)Nc2cccc3ccccc23)OCCCC[C@H](C)Oc2ccc(NS(C)(=O)=O)cc2C1=O
 : 11, 8
46. C[C@H](CO)N1C[C@H](C)[C@@H](CN(C)C(=O)Nc2cccc(C(F)(F)F)c2)OCc2ccccc2-c2c(n(C)c3ccccc23)C1=O
 : ?, nt
47. C/C=C/c1ccc([C@@H]2[C@H](CO)N(C(=O)CN(C)C)C23CN(C(=O)C2CC2)C3)cc1
 : 3, 0
48. C[C@@H]1CCCCO[C@H](CN(C)S(C)(=O)=O)[C@H](C)CN([C@@H](C)CO)C(=O)c2cc(NC(=O)CCCN(C)C)ccc2O1
 : 11, 11
49. COc1ccc(C(=O)N2C[C@H]3[C@@H](c4ccccc42)[C@H](CO)N3C(=O)c2cccc(F)c2)cc1
 : 2, -1
50. Cc1cccc(-c2ccc([C@@H]3[C@H](CO)N4CCCCN(S(=O)(=O)c5cccs5)C[C@@H]34)cc2)c1
 : -21, -23
51. C[C@@H]1CN([C@@H](C)CO)C(=O)c2cc(Br)cnc2O[C@@H]1CN(C)C(=O)c1ccc(F)cc1
 : -1, 2
52. COc1cccc(NC(=O)N2[C@@H]3CNC[C@H]2C3c2ccc(/C=C/c3ccccc3)cc2)c1 (stereo partly drawn)
 : -23&-2, -19&9
53. CCS(=O)(=O)NCC[C@H]1CC[C@@H](NS(=O)(=O)c2ccccc2C)[C@H](CO)O1
 : 8, -2
54. O=C(C[C@@H]1CC[C@@H]2[C@H](COC[C@H](O)CN2S(=O)(=O)c2ccccc2)O1)NCCN1CCCCC1
 : 5, 8
55. C/C=C/c1cnc2c(c1)C(=O)N([C@H](C)CO)C[C@@H](C)[C@@H](CN(C)C(=O)c1cccc(F)c1)O2
 : 7, 7
56. CO[C@H](CN(C)S(=O)(=O)c1ccc(F)cc1)[C@H](C)CN([C@@H](C)CO)S(=O)(=O)c1cccc(Cl)c1
 : -17, -9
57. O=C(C[C@H]1CC[C@H]2[C@@H](COC[C@@H](O)CN2S(=O)(=O)c2ccc(F)cc2)O1)N[C@@H]1CCN(Cc2ccccc2)C1
 : -10, 2
58. C[C@@H]1CCCCO[C@@H](CN(C)C(=O)Nc2ccc(F)cc2)[C@H](C)CN([C@@H](C)CO)C(=O)c2cc(NC(=O)NC3CCCCC3)ccc2O1
 : -16, -5
59. C[C@@H]1CN([C@H](C)CO)C(=O)c2cc(NC(=O)c3ccncc3)ccc2O[C@@H]1CN(C)C(=O)Nc1ccc(C(F)(F)F)cc1
 : 11, 12
60. CCC(=O)N(C)C[C@@H]1Oc2ncc(C#Cc3cccnc3)cc2C(=O)N([C@@H](C)CO)C[C@H]1C
 : 25, 11
61. CO[C@@H]1CN(C)C(=O)c2cc(NC(C)=O)ccc2OC[C@H](C)N(Cc2ccccn2)C[C@H]1C
 : 9, -2
62. CCC(=O)N1C[C@H](C)[C@H](OC)CN(C)C(=O)c2ccc(NC(=O)c3cnccn3)cc2OC[C@H]1C
 : 7, 2
63. COc1ccccc1NC(=O)N[C@H]1CC[C@H](CC(=O)N[C@H](C)c2ccccc2)O[C@H]1CO
 : -5, 6
64. CO[C@H]1CN(C)C(=O)c2cc(NC(=O)Nc3ccccc3F)ccc2OC[C@H](C)N(Cc2ccccc2C(=O)O)C[C@@H]1C
 : 3, 4
65. Cc1ccc(S(=O)(=O)N(C)C[C@H]2OCCCC[C@H](C)Oc3ccc(NC(=O)c4ccccc4)cc3C(=O)N([C@H](C)CO)C[C@@H]2C)cc1
 : -9, -4
66. CC(=O)NC[C@H]1[C@@H](c2ccc(-c3ccccc3)cc2)[C@@H](CO)N1C(=O)C1CC1
 : -3, 8
67. COCC(=O)N1C[C@H](C)[C@H](OC)CN(C)C(=O)c2cc(NC(=O)Nc3cccc(F)c3)ccc2OC[C@@H]1C
 : -4, 4
68. COc1cccc(S(=O)(=O)N[C@H]2CC[C@@H](CC(=O)NC3CCC3)O[C@H]2CO)c1
 : 0, 1
69. C[C@H](CO)N1C[C@H](C)[C@H](CN(C)CC2CC2)Oc2cc(-c3ccc(C#N)cc3)ccc2S1(=O)=O
 : -14, -10
70. O=C(CC1CC1)N[C@@H]1CC[C@@H](CCNS(=O)(=O)c2ccc(Cl)cc2)O[C@@H]1CO
 : -3, 3
71. C[C@H]1CN([C@@H](C)CO)C(=O)Cc2cc(NS(C)(=O)=O)ccc2O[C@H]1CN(C)Cc1ccc2c(c1)OCO2
 : -1, 1
72. C[C@H](CO)N1C[C@H](C)[C@H](CN(C)Cc2ccccn2)Oc2cc(-c3cncnc3)ccc2S1(=O)=O
 : 19, 12

A few values from the entries so far.
For Vaccinia inh, cpd 63 is listed with -5
For Vaccinia inh Venus, cpd 70 is listed with 3
For Vaccinia inh Venus, cpd 65 is listed with -4
For Vaccinia inh, cpd 62 is listed with 7
